Source: PubChem
VDR inhibitor – Inhibitors of the vitamin D receptor (VDR): qHTS; Vitamin D3 receptor (Homo sapiens), P11473; VDR-SRC2-3 peptide fluorescence polarization, 2 h; Potency, µM, for inactives: max response, negative = inhibition, most hits filed as inhibitors; actives 0.93% (n = 400,000); active = well fitted inhibition curve with a large enough effect; inconclusive = small, poorly fitted or top-dose-only effect, or another doubt; inactive = no such curve, though single readings can be large or run the other way; note: series mostly up to about 120 µM
Target sequence (P11473 whole entry, looked up): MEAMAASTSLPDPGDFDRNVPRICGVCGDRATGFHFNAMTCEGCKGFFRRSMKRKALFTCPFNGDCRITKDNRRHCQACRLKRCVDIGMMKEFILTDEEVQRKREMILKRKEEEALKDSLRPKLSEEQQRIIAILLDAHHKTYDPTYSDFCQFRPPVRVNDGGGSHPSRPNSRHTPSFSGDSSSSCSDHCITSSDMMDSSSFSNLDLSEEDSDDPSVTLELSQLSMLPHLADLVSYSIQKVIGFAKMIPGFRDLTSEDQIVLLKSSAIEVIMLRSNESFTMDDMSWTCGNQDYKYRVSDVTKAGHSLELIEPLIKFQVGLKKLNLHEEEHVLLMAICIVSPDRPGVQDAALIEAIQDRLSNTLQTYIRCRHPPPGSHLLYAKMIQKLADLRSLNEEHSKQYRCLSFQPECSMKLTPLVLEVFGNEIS
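Reagent solutions, kept cold and dark, are dispensed first; compounds are then pinned in at 23 nl, plates briefly spun, and incubated 2 h at ambient temperature. Inhibition of VDR–SRC2-3 peptide binding is read by fluorescence polarization.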
Numbers without * were called inactive; ? = inconclusive; & = joins results of further samples; [ ] = remark or other dose. % is set by controls: 0 for no effect and ±100 for the full control effect; potency is the fitted concentration of half-maximal effect. Only part of the results is shown; the hit share may differ from the screen's.

SMILES,VDR inhibitor
CCC(C)NC(=O)c1sc2nc(C)c(C(=O)Nc3ccc(C)cc3C)c(-c3ccc(Cl)cc3)c2c1N (stereo not drawn),-5.7%
COc1ccc(Cl)cc1NC(=S)NCCc1ccc(F)cc1,-1.1%
CCOc1ccc(N=Nc2c(N)[nH][nH]c2=O)cc1,-0.7%
Cc1cc(C(=O)N/N=C/c2c(C)[nH]c3ccccc23)n[nH]1,4.6%
COc1ccc(-c2cc(C(=O)NCCc3ccc(Cl)cc3)[nH]n2)cc1,-8.8%
O=[N+]([O-])c1ccc(Cc2ccc([N+](=O)[O-])cc2)cc1,1.2%
COc1cccc(NC(=O)CCCCCN2C(=O)[C@@H]3Cc4ccccc4CN3C2=O)c1,-5.1%
CCOC(=O)CSc1n[nH]c(NC(=O)NC(C)C)n1,-12.5%
CCC(=O)Nc1cccc(C2=NOC3(C2)C[C@@H](C(N)=O)N(C(=O)C(c2ccccc2)c2ccccc2)C3)c1 (stereo partly drawn),-9.5%
O=S1(=O)N=C(c2ccccc2)C=C(c2ccccc2)N1,1.2%
COCC(=O)Nc1nnc(SCC(=O)NCc2cccs2)s1,-12.2%
O=C(CN1CCOCC1)N/N=C/c1ccccc1,-6.0%
CCOc1ccc(S(=O)(=O)N(C)c2ccc(OCC(=O)Nc3nc(-c4cc(OC)ccc4OC)cs3)cc2)cc1,6.3%
CCCCc1ccc(NC(=S)NCc2ccccc2OC)cc1,19.1%
O=c1nc(/C=C/c2ccccc2C(F)(F)F)cc(C(F)(F)F)[nH]1,31.6µM*
CN1C(=O)[C@H]2[C@@H](/C=C/c3ccccc3)N3C(=O)CN(Cc4ccccc4)C(=O)[C@@]3(C)[C@H]2C1=O,-12.0%
COc1ccc(Br)cc1/C=N/n1c(-c2ccccc2)n[nH]c1=S,-4.0%
Cc1c(NC(=S)N2CCN(c3cccc(Cl)c3)CC2)c(=O)n(-c2ccccc2)n1C,21.3%
COc1ccc(S(=O)(=O)N2CCCCCC2)cc1C(=O)OCC(=O)NCC(C)C,0.8%
Cc1cc(C)c(CN2CCC(CO)(CCOc3ccccc3)CC2)cc1C,-1.2%
CC1(C)CC(=O)C=C(NCCc2ccccc2)C1,7.0%
COc1ccc(S(=O)(=O)Nc2cccc(-c3ccc4nncn4n3)c2)cc1F,0.3%
COc1cccc(/C=C(\C)C(=O)c2c(C)cc(C)[nH]c2=O)c1OC,-10.3%
C[C@H](CO)N1C[C@H](C)[C@@H](CN(C)Cc2ccncc2)Oc2c(cccc2N(C)C)C1=O,-7.0%
O=C(CSc1nc2c(sc3ccccc32)c(=O)n1CCCN1CCCC1)NCC1CCCO1 (stereo not drawn),3.4%
Cc1cc(C)n2c(SCC(=O)N3CCN(S(=O)(=O)c4ccc(Cl)cc4)CC3)nnc2n1,5.2%
O=C(c1ccc2nc(-c3ccco3)c(-c3ccco3)nc2c1)N1CCN(c2ccccc2)CC1,-0.3%
CN(CC(=O)Nc1ccc(S(=O)(=O)N2CCCC2)cc1)Cc1ccc(Cl)cc1Cl,3.0%
CCOC(=O)c1[nH]cnc1C(=O)Nc1ccc([N+](=O)[O-])cc1,-11.1%
Cc1ccc(C)c(NC(=O)/C(C#N)=C/c2ccc[nH]2)c1,-8.5%
O=C1c2ccccc2C(=O)C1c1ccc(Cl)cc1,-9.2%&-1.0%
Cn1nnnc1SCC(=O)Nc1nc(-c2ccccc2)c(-c2ccccc2)o1,6.7%
O=C(NS(=O)(=O)c1ccc(F)cc1)O[C@@H]1C(=O)c2cc(Br)ccc2O[C@H]1c1ccc2c(c1)OCO2,-5.8%
COc1ccc(NC(=O)c2oc3ccccc3c2NC(=O)Cc2cccs2)cc1,-7.8%
CCOCC(=O)Nc1nc2ccc(C)cc2s1,1.1%
CC(C)c1cc(C(=O)N/N=C/C=C/c2ccccc2)n[nH]1,7.2%
C=CCn1c(NC(=O)c2ccccc2Cl)c(C#N)c2nc3ccccc3nc21,35.5µM*
N#CC(C#N)=C1C=C2C=C(N3CCCCC3)CCC2CC1 (stereo not drawn),?
Cc1ccc(-n2nc(CO)c(C(=O)NCCCc3ccccc3)n2)cc1,7.7%
Cc1ccc(OC(C)C(=O)N2CCN(CCc3ccncc3)CC2)cc1C (stereo not drawn),-2.9%
CCOC(=O)c1c(C)n(-c2ccccc2)c2ccc(O)c(CN(C)C)c12,4.1%
CC(C)CNC(=O)C(=O)NCC1OCCCN1S(=O)(=O)c1cccs1 (stereo not drawn),15.0%
CCCn1c2ccccc2c2nnc(SCCN3CCOCC3)nc21,-5.1%
COc1ccc(-c2oc3cc(OC)c(O)c(OC)c3c(=O)c2OC)cc1O,11.0%
COCC(C)NC(=O)c1noc2c1CCc1cc(OC)ccc1-2 (stereo not drawn),-5.4%
C/C(=N/NC(=O)c1ccc(Br)s1)c1cccnc1,16.1%
COc1ccc(C(=O)O)cc1S(=O)(=O)N(C)CCc1ccccn1,0.5%
O=C(Cn1cnc2ccccc21)N/N=C/c1cccc([N+](=O)[O-])c1,-9.2%
CCC(C)NC(=O)c1nn(Cc2ccccc2)c(=O)c2ccccc12 (stereo not drawn),15.7%
COC(=O)c1cc(OC)c(OC)c(OC)c1N,5.5%
O=C(Nc1ccccc1)Oc1ccccc1N1CCOCC1,-2.1%
COc1ccc(C(CNC(=O)c2ccc(-n3cnnn3)cc2)N2CCOCC2)cc1 (stereo not drawn),9.6%
Cc1cc2cc(CNC(=O)c3ccc(S(=O)(=O)N4CCOCC4)cc3)ccc2n1C,5.9%
Cc1ccc(C)c(N2CCN(C(=O)Cc3cn(C)c4ccccc34)CC2)c1,3.2%
COc1ccc2c(c1OC)C(=O)N(c1ccc(F)cc1)C2,-0.4%
Cc1cccc(Nc2c(F)c(F)c(F)c(F)c2C(=O)O)c1,-14.3%
N#CCc1nc2ccc(S(=O)(=O)N3CCOCC3)cc2s1,39.1%[activator]
COC(=O)C1=C(C)N(c2cccc(OC)c2)C(=O)/C1=C\c1ccco1,?
Cc1cc(/C=C(/C#N)c2nc3ccccc3[nH]2)c(C)n1-c1cccc([N+](=O)[O-])c1,-1.4%
NC(=O)CSc1nnc(-c2ccc([N+](=O)[O-])cc2)o1,-18.9%

VDR inhibitor, hit marks shown above
SMILES,VDR inhibitor
O=c1nc(/C=C/c2ccccc2C(F)(F)F)cc(C(F)(F)F)[nH]1,31.6µM*
C=CCn1c(NC(=O)c2ccccc2Cl)c(C#N)c2nc3ccccc3nc21,35.5µM*

Next part.
smiles	VDR inhibitor
Cc1nnc(SCc2cccc3ccccc23)s1	-2.3%
CCOC(=O)c1c(NC(=O)c2ccc(S(=O)(=O)N(CC(C)C)CC(C)C)cc2)sc2c1CCN(C(=O)OCC)C2	19.2%
Cc1cc(C)c2c(N)c(C(=O)N3CCCCCC3)sc2n1	-4.9%
Cn1c(SCC(=O)N2CCCC2)nnc1-c1cnccn1	3.2%
COc1ccc(N2CCN(C(=O)COc3ccc4c(C)cc(=O)oc4c3C)CC2)cc1	3.3%
COc1ccc(NC(=O)CN2C(=O)NC3(CCCCC3C)C2=O)cc1S(=O)(=O)N1CCOCC1 (stereo not drawn)	4.3%
COc1cc(OC)cc(C(=O)NCC(=O)OCc2cc(=O)oc3cc(OC)ccc23)c1	4.5%
O=c1[nH]c2cc([N+](=O)[O-])ccc2c2ccccc12	-18.4%
CCCn1nnnc1SCC(=O)NCc1cccs1	-7.4%
CCOc1ccc(-c2ncncc2-c2ccc(OC)cc2)c(O)c1	4.2%
O=S1(=O)CCC(NC(=S)Nc2ccccc2)C1 (stereo not drawn)	0.9%
CCCNC(=S)NNC(=O)c1cc(C2CC2)nc2ccccc12	-3.2%
Cc1cccc(C)c1NC(=O)C1(C)c2cccc[n+]2CC(=O)N1Cc1cccs1 (stereo not drawn)	15.5%
O=C(CSc1nc(C(F)(F)F)cc(=O)[nH]1)NCc1ccc2c(c1)OCO2	-6.6%
COC(=O)C1=C(CS(=O)(=O)c2ccc(Cl)cc2)NC(=O)NC1c1ccc(O)c(OC)c1 (stereo not drawn)	-3.8%
CCC(C)Nc1nnc(SCC(=O)c2c(N)n(C3CC3)c(=O)[nH]c2=O)s1 (stereo not drawn)	19.6%
Cn1cc(CNCc2ccc(-n3cccn3)cc2)c(-c2ccccc2F)n1	-19.7%
O=C1CN(C(=O)c2ccccc2[N+](=O)[O-])C(c2ccccc2)c2cc(Br)ccc2N1 (stereo not drawn)	-13.0%
CC(=O)N(c1ccc2oc(=O)sc2c1)S(=O)(=O)c1ccccc1	-26.7%
Cn1c(=O)n(CCc2ccccc2)c(=O)c2c1nc1n2CCN1Cc1ccco1	-10.8%
CC(C)CN1CCN(Cc2ccc(Oc3ncccn3)cc2)CC1CCO (stereo not drawn)	?
COc1ccccc1C(=O)Nc1cccc(SC)c1	8.6%
CCOc1ccc(CCNC(=O)Cn2nc(-c3ccc(C)cc3)ccc2=O)cc1OCC	9.1%
O=C(c1ccco1)[C@@H]1[C@@H]2C(=O)N(c3ccc(Br)cc3)C(=O)[C@@H]2C2c3ccccc3C=CN21 (stereo partly drawn)	-12.5%
COc1ccccc1C1C(C(=O)c2cc3ccccc3o2)=C(O)C(=O)N1CCN(C)C (stereo not drawn)	7.1%

5 entries drawn at random from those above, as already listed:
smiles	VDR inhibitor
O=c1[nH]c2cc([N+](=O)[O-])ccc2c2ccccc12	-18.4%
CC(=O)N(c1ccc2oc(=O)sc2c1)S(=O)(=O)c1ccccc1	-26.7%
Cc1cccc(C)c1NC(=O)C1(C)c2cccc[n+]2CC(=O)N1Cc1cccs1 (stereo not drawn)	15.5%
Cc1nnc(SCc2cccc3ccccc23)s1	-2.3%
CCCn1nnnc1SCC(=O)NCc1cccs1	-7.4%

(next part)
smiles	VDR inhibitor
COc1ccccc1NC(=S)NC(=O)CCCOc1ccc(Cl)cc1Cl	20.9%
CNC(=O)C(=O)NCC1OCCN1S(=O)(=O)c1ccc(OC)c(OC)c1 (stereo not drawn)	-6.3%
C=CCNC(=S)N1CCC(C(=O)c2ccc(OC)cc2)CC1	-5.2%
CC(Cl)C(=O)Nc1ccccc1C#N (stereo not drawn)	2.2%
CC(C)NC(=O)N1CCC(N2CCN(Cc3ccc(F)cc3)C(=O)C2=O)CC1	5.9%
CCOCCCn1c(SCC(=O)Nc2ccc3[nH]c(=O)[nH]c3c2)nc2ccccc2c1=O	5.7%
Cc1cccc(C(=O)NCC(=O)OCC(=O)c2cc(C)n(CC3CCCO3)c2C)c1 (stereo not drawn)	8.7%
O=C(COc1cc(F)ccc1[N+](=O)[O-])Nc1cccc(S(=O)(=O)NC2=NCCC2)c1	-10.1%
COC(=O)c1ccc(C2CC(=O)Nc3cc(OC)c(OC)cc32)cc1 (stereo not drawn)	-3.5%
CC(C)(C)C(=O)NCCc1nc2ccccc2n1CC(=O)c1ccccc1	-6.7%
CCN(Cc1nc(-c2cccc(C)c2)no1)C(=O)c1ccco1	-8.1%
COc1ccc2c(c1)C=C(CN1CCN(C(C)C)C(CCO)C1)CO2 (stereo not drawn)	-3.5%
N/C(=N/O)c1ccccc1N1CCC(Cc2ccccc2)CC1	-0.1%
CC(Sc1nnc2ccccn12)C(N)=O (stereo not drawn)	2.9%
CCCn1c(SCC(O)c2cccc(OC)c2)nc2ccccc21 (stereo not drawn)	0.9%
Cc1sc2nc(SCCO)n(-c3ccccc3)c(=O)c2c1C	-2.1%
Cc1cc(C)nc(SCC(=O)N/N=C\C(Br)=C\c2ccccc2)n1	96.1%[activator]
CCOC(=O)C1=C(N)c2ccccc2CC1C1CCCC1 (stereo not drawn)	3.8%
Cc1ccccc1-c1nc(CN2CCC(C(=O)NC(C)C)CC2)c(C)o1	6.5%
Cc1ccc(C(OCC(O)CNC(CO)C(O)c2ccc([N+](=O)[O-])cc2)c2ccccc2)cc1 (stereo not drawn)	13.0%
O=C(COc1ccc(Br)cc1)NCCO	4.8%
O=C(O)/C=C/c1cccnc1	17.3%
CCCOc1ccc(-c2cn3ccccc3n2)cc1	10.1%
CCN(Cc1ccccc1)C(=O)COC(=O)c1cc(Cl)nc(Cl)c1	4.7%
CCOc1cccc(C2c3c(oc4cc(C)c(C)cc4c3=O)C(=O)N2c2nc(C)c(C)s2)c1 (stereo not drawn)	18.9%
CC(C)NC(=O)C1CCN(C2CCN(Cc3ccc4cccc(F)c4n3)CC2)CC1	-17.7%
COc1ccccc1NC(=O)CCN1C(=O)C2C3CCC(C3)C2C1=O (stereo not drawn)	1.5%
COc1ccc(S(=O)(=O)Nc2ccccc2C(=O)N2CCCC2)cc1C	4.6%
CCCCN1CC(=O)N2[C@H]3c4cc(Cl)ccc4OC[C@@H]3[C@H](c3ccccc3)[C@]2(C)C1=O	-1.4%
Cc1c(N(C(=O)Nc2ccccc2)C2=NCC(C)S2)c(=O)n(-c2ccccc2)n1C (stereo not drawn)	0.7%
CCC1=NN2C(=N)/C(=C\c3ccc(SCc4ccco4)o3)C(=O)N=C2S1	-10.2%
O=C(CSc1nc(=O)n(CCCN2CCOCC2)c2c1CCC2)Nc1ccccc1F	17.8%
CCCCC(=O)Nc1ccc(NCc2ccc(C)s2)cc1	4.4%
C#Cc1ccc([C@@H]2C=C(C(=O)O)O[C@H](OCCCCO)C2)cc1	-24.0%
COc1cc(C(CC(=O)Nc2cccc(C(C)=O)c2)N2Cc3ccccc3C2=O)cc(OC)c1OC (stereo not drawn)	8.4%
Cn1c(Cn2c(C(F)(F)F)nc3ccccc32)nc2ccccc21	17.5%
CNC(=S)Nc1ccc(OC)c(OC)c1	-3.4%
O=C(O)CCC(=O)OCCc1cc2ccccc2c(=O)o1	-7.2%
CN1CCC(=O)N(C(CSc2ccc(Br)cc2)Cc2ccccc2)CC1 (stereo not drawn)	?
Cn1c(SCC(=O)N(C2CCCCC2)C2CCCCC2)nnc1-c1cccs1	-1.2%
